Screening results as filed in PubChem.
TNAP inh no acc – inhibitors of human TNAP without phosphate acceptor. P05186. purified TNAP, CDP-star luminescence, 30 min. inhibition, % at 20 µM. actives 0.26% (n = 200,000);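 active means tissue-nonspecific alkaline phosphatase inhibition above about 50% at 20 µM in the single-dose screen, limit read from the data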;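 further: 0% = DMSO negative control and 100% = EDTA positive control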
Target sequence (P05186 whole entry, looked up): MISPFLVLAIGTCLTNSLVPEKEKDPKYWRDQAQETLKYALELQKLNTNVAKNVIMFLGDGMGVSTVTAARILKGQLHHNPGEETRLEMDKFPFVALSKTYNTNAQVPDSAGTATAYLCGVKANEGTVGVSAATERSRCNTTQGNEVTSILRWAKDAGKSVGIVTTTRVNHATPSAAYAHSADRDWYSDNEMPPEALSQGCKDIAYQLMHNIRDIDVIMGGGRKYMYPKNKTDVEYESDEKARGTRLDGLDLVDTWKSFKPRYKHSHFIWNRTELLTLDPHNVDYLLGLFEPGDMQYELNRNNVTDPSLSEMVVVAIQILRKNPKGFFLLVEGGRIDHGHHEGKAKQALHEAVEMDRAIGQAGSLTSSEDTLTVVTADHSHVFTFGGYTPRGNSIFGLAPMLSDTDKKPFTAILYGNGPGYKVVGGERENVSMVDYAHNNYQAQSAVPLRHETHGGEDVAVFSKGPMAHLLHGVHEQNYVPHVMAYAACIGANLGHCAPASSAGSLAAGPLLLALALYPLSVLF
TNAP inh hi DEA – inhibitors of human TNAP at high phosphate acceptor concentration. P05186. purified TNAP, CDP-star luminescence, 1 M DEA. inhibition, % at 20 µM. actives 0.03% (n = 200,000);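 active means over 50% inhibition of tissue-nonspecific alkaline phosphatase at 20 µM in the single-dose screen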;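 further: plate controls were DMSO wells for no effect and EDTA-quenched wells as full inhibition for full effect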
bIAP act – intestinal alkaline phosphatase (bovine) activation; actives 0.17% (n = 200,000); purified bovine IAP, CDP-star luminescence, 30 min; stronger effect = higher value; fold of DMSO-control signal, blank-subtracted; activation factor at 20 µM;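 active means activation factor of 2 or more at 20 µM, a signal rise over negative controls twice the positive control's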
bIAP inhibitor – blocks bovine intestinal alkaline phosphatase activity; purified bovine IAP, CDP-star luminescence, 30 min; inhibition, % at 20 µM; 190,000 tested, under 10 active; AID 1019;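 active means over 50% inhibition of intestinal alkaline phosphatase at 20 µM in the single-dose screen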
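System: purified bovine intestinal alkaline phosphatase (IAP) enzyme; Input: IAP diluted 1/65,000,000 in the well; Measured by: CDP-star luminescence signal; Compound dosing: 20 µM single dose; Incubation: 30 min reaction at room temperature.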
TNAP act hi DEA – increases human TNAP activity under high phosphate acceptor concentration; purified TNAP, CDP-star luminescence, 1 M DEA, 30 min; stronger effect = higher value; 0 = EDTA background, 1 = DMSO-only activity; activation factor at 20 µM; 200,000 tested, under 10 active;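 active means activation factor at least 2 at 20 µM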
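Measured by: Luminescent substrate turnover signal | Test system: Human TNAP | Input: TNAP 1/800 final | Dosing: 20 µM single point | Schedule: 30 min, room temperature | Controls: EDTA wells as negative control, DMSO wells as positive control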
The depositor's hits bear a star; & = joins results of further samples. A portion of the library; the hit share may differ from the screen's.

Short forms – A = TNAP inh no acc; B = TNAP inh hi DEA; C = bIAP act; D = bIAP inhibitor; E = TNAP act hi DEA
1: N/C(=N\OC(=O)c1cc(Br)ccc1Cl)c1ccccn1
  A = -12; B = -4; C = 1.1; D = -5; E = 1
2: CC1=CN2C(=N)/C(=C/c3ccc(C)o3)C(=O)N=C2S1
  A = -9; B = 10; C = 0.9; D = 11; E = 0.9
3: CN(C)CC/C=C1\c2ccccc2COc2ccccc21
  A = -6; B = -2; C = 0.9; D = 10; E = 1
4: NCCNCCNCCN
  A = -9; B = -1; C = 0.9; D = 10; E = 1
5: CC(=O)O[C@]1(C(C)=O)CC[C@H]2[C@@H]3C=C(Cl)C4=CC(=O)CC[C@]4(C)[C@H]3CC[C@@]21C
  A = -9; B = -4; C = 1; D = 2; E = 1
6: CO[C@H]1C=CO[C@@]2(C)Oc3c(C)c(O)c4c(O)c(c(C=NN5CCN(C)CC5)c(O)c4c3C2=O)NC(=O)C(C)=CC=C[C@H](C)[C@H](O)[C@@H](C)[C@@H](O)[C@@H](C)[C@H](OC(C)=O)[C@@H]1C
  A = 31; B = 21; C = 0.9; D = 12; E = 0.8
7: COc1c2occc2cc2ccc(=O)oc12
  A = -11; B = -3; C = 0.9; D = 13; E = 1
8: Cc1nc(-c2ccc(C(=O)Nc3cccc(Br)c3)cc2)cs1
  A = -10; B = -3; C = 1; D = -2; E = 1
9: COc1ccc(Cn2cc(C(=O)O)c(=O)c3ccccc32)cc1
  A = -11; B = -4; C = 0.9; D = 7; E = 1
10: Cc1ccnc(NC(=O)CCC2CCCCC2)c1
  A = -10; B = -1; C = 0.9; D = 14; E = 1
11: Cc1ccc([N+](=O)[O-])cc1N
  A = -4; B = -2; C = 1; D = -4; E = 1
12: CCCn1c(=O)[nH]c(=O)c2[nH]cnc21
  A = -12; B = -3; C = 0.9; D = 9; E = 1
13: CC(=O)Nc1ccc(Oc2ncccn2)cc1
  A = -13; B = -6; C = 1; D = 2; E = 1.1
14: COC(=O)c1ccc(NC(=O)Nc2ccccc2F)cc1
  A = -5; B = -3; C = 1.1; D = -5; E = 1
15: COc1ccccc1-c1noc(-c2ccncc2)n1
  A = -10; B = -1; C = 0.9; D = 8; E = 1
16: O=C(Nc1ccccc1)N1CCc2ccccc21
  A = -6; B = 1; C = 0.9; D = 6; E = 1
17: CN(C)CCCN1c2ccccc2CCc2ccccc21
  A = -4; B = 0; C = 0.9; D = 14; E = 1
18: C[N+](C)(C)CCCCCCCCCC[N+](C)(C)C
  A = -2; B = 1; C = 1.1; D = -6; E = 1
19: Cc1cc(N)n2nc(-c3ccc(C(C)(C)C)cc3)cc2n1
  A = -3; B = -4; C = 0.9; D = 10; E = 1
20: CCOc1ccc2nc(C(=O)N3CCCC(C)C3)sc2c1 (stereo not drawn)
  A = 2; B = -10; C = 0.6; D = 36; E = 1.1

Twelve structures from above, arranged by SMILES length, high to low:
Short forms – A = TNAP inh no acc; B = TNAP inh hi DEA; C = bIAP act; D = bIAP inhibitor; E = TNAP act hi DEA
5: CC(=O)O[C@]1(C(C)=O)CC[C@H]2[C@@H]3C=C(Cl)C4=CC(=O)CC[C@]4(C)[C@H]3CC[C@@]21C
  A = -9; B = -4; C = 1; D = 2; E = 1
2: CC1=CN2C(=N)/C(=C/c3ccc(C)o3)C(=O)N=C2S1
  A = -9; B = 10; C = 0.9; D = 11; E = 0.9
8: Cc1nc(-c2ccc(C(=O)Nc3cccc(Br)c3)cc2)cs1
  A = -10; B = -3; C = 1; D = -2; E = 1
1: N/C(=N\OC(=O)c1cc(Br)ccc1Cl)c1ccccn1
  A = -12; B = -4; C = 1.1; D = -5; E = 1
14: COC(=O)c1ccc(NC(=O)Nc2ccccc2F)cc1
  A = -5; B = -3; C = 1.1; D = -5; E = 1
3: CN(C)CC/C=C1\c2ccccc2COc2ccccc21
  A = -6; B = -2; C = 0.9; D = 10; E = 1
17: CN(C)CCCN1c2ccccc2CCc2ccccc21
  A = -4; B = 0; C = 0.9; D = 14; E = 1
10: Cc1ccnc(NC(=O)CCC2CCCCC2)c1
  A = -10; B = -1; C = 0.9; D = 14; E = 1
13: CC(=O)Nc1ccc(Oc2ncccn2)cc1
  A = -13; B = -6; C = 1; D = 2; E = 1.1
7: COc1c2occc2cc2ccc(=O)oc12
  A = -11; B = -3; C = 0.9; D = 13; E = 1
11: Cc1ccc([N+](=O)[O-])cc1N
  A = -4; B = -2; C = 1; D = -4; E = 1
4: NCCNCCNCCN
  A = -9; B = -1; C = 0.9; D = 10; E = 1

Continued:
Short forms – A = TNAP inh no acc; B = TNAP inh hi DEA; C = bIAP act; D = bIAP inhibitor; E = TNAP act hi DEA
21: c1cnc2c(c1)ccc1cccnc12
  A = -14&-6; B = -4&2; C = 1.1&1.1; D = -14&-12; E = 1&1
22: Nc1ccn([C@@H]2O[C@H](CO)[C@@H](O)[C@@H]2O)c(=O)n1
  A = -12; B = -2; C = 1.1; D = -12; E = 1
23: COc1ccc(-c2csc(-c3cccs3)n2)c(OC)c1
  A = -6; B = -4; C = 1; D = 5; E = 1
24: CN1C(C(=O)Nc2ccccn2)=C(O)c2sccc2S1(=O)=O
  A = -12; B = -5; C = 0.9; D = 15; E = 1.1
25: CN1[C@@H]2CC[C@H]1CC(OC(=O)C(CO)c1ccccc1)C2 (stereo partly drawn)
  A = -10; B = -3; C = 0.9; D = 12; E = 1
26: COc1ccc2c(c1)c(CC(=O)O)c(C)n2C(=O)c1ccc(Cl)cc1
  A = -10; B = -2; C = 1.1; D = -14; E = 1
27: Brc1c(NC2=NCCN2)ccc2nccnc12
  A = -11; B = -3; C = 0.9; D = 14; E = 1
28: CN[C@H]1CC[C@@H](c2ccc(Cl)c(Cl)c2)c2ccccc21
  A = -6; B = -7; C = 0.9; D = 6; E = 1.1
29: Cc1ccc(/C=C/C(=O)c2ccccc2)cc1
  A = -8; B = 0; C = 0.8; D = 22; E = 1
30: NCCCC(=O)O
  A = -9; B = -3; C = 0.9; D = 10; E = 1
31: C[C@H](CS)C(=O)N1CCC[C@H]1C(=O)O
  A = -3; B = -2; C = 0.9; D = 7; E = 1
32: O=C(Nc1nc2ccccc2s1)c1ccccc1
  A = 9; B = -3; C = 1; D = -4; E = 1
33: CNC(=O)N(c1ccccc1)c1ccccc1
  A = -3; B = 1; C = 0.9; D = 9; E = 1
34: CN(C)CCOC(c1ccccc1)c1ccccc1
  A = -9&-4; B = -2&-7; C = 0.9&1.1; D = 14&-6; E = 1&1.1
35: O=C(N/N=C/c1ccc(F)cc1)c1ccccc1
  A = -12; B = -2; C = 1.2; D = -16; E = 1
36: C[C@H]1O[C@@H](O[C@H]2[C@@H](O)C[C@H](O[C@H]3[C@@H](O)C[C@H](O[C@H]4CC[C@@]5(C)[C@H](CC[C@@H]6[C@@H]5C[C@@H](O)[C@]5(C)[C@@H](C7=CC(=O)OC7)CC[C@]65O)C4)O[C@@H]3C)O[C@@H]2C)C[C@H](O)[C@@H]1O
  A = -8; B = -4; C = 0.9; D = 8; E = 1
37: Cc1cc(NS(=O)(=O)c2ccc(N)cc2)no1
  A = -9; B = -2; C = 1.1; D = -12; E = 1
38: COC(=O)CNc1c(-c2ccccn2)nc2ccc(Br)cn12
  A = -23; B = -8; C = 1; D = 3; E = 1.1
39: Cc1ccc(-c2cc(C(=O)N3CCN(c4ncccn4)CC3)c3ccccc3n2)cc1
  A = -6; B = -4; C = 1; D = -2; E = 1
40: CCOc1ccc(OCc2ccc(C(=O)OCc3ccccn3)o2)cc1
  A = -7; B = -1; C = 1.1; D = -6; E = 1
